PKD1 kinase inh: blocks activity of human protein kinase D1; Q15139; PKD1 kinase fluorescence polarization assay; inhibition, %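 (about 10 µM by stock and volumes)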; hit rate 0.056% among 200,000; AID 797;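 active = inhibition of 50% or more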;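 note: controls were vehicle for no effect and a reference inhibitor for full effect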
Target sequence (Q15139 whole entry, looked up): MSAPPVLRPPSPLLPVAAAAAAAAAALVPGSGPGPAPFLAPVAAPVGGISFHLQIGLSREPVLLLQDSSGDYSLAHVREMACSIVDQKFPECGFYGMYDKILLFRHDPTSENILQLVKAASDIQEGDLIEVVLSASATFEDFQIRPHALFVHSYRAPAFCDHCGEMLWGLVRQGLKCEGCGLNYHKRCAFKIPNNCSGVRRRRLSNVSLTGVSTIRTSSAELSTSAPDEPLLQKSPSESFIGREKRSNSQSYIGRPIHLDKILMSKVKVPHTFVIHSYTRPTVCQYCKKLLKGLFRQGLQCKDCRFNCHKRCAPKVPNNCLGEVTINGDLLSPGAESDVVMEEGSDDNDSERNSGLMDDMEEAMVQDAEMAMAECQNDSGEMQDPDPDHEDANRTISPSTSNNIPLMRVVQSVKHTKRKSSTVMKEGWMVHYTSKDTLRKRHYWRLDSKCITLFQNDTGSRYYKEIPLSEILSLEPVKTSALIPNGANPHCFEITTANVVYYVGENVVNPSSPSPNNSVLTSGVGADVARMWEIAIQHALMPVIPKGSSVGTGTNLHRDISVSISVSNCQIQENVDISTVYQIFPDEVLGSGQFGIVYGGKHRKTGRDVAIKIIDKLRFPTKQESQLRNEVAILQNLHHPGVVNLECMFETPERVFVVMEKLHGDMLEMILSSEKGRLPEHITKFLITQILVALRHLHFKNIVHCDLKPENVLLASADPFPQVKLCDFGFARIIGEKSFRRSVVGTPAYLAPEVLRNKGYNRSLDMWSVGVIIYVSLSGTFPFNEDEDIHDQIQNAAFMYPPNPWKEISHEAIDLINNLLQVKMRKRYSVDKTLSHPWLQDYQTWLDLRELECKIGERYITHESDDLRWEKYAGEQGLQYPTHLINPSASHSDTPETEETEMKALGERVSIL
GALR2 ag: agonists of human galanin receptor 2 (GALR2) | activation, %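 (tested at 5 µM)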 | GALR2-expressing cells, agonist activation read-out | hit rate 0.48% among 140,000;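 active = above mean plus 3 SD of all compounds, about 5% in these data, not always enough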;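 note: 0% = vehicle buffer wells and 100% = reference agonist at full effect; tested in CHO reporter cells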
Insulin prom inh: TRM-6 insulin promoter activity inhibition; TRM-6 cells (human fetal islet line), insulin promoter-eGFP reporter, imaging; reporter expression induced with tamoxifen; hit rate 0.9% among 130,000; inhibition, % at 2 µM; AID 1273;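 active = inhibition above the mean plus 3 SD, with well images judged a real hit on visual review, cut at about 60% in these data, passing the limit was not always enough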
HSV augment: HSV replication enhancement. HSV replication augmentation in cells, fold increase. maximum fold increase. hit rate 0.005% among 220,000;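 active = peak rise of 1.5-fold or more in the series; tested in PC3 cells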;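 note: first round at 10 µM; read as green reporter fluorescence; hits show the peak of a series up to 25 µM; 1 = signal of infected wells without compound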
RGS16-Gao HTS: regulators of human RGS16-Galphao interaction. O15492+P09471. bead-based flow cytometry RGS16-Galphao binding, fluorescence; actives lie on both sides. binding response (% of control), % at 10 µM. hit rate 0.38% among 220,000;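 active = below 25% or above 175%, edge rows of some plates excepted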;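 note: Galphao activated by GDP with aluminum fluoride before binding; 100% = wells without compound and 0% = beads without RGS; some results beyond the cut were filed as inactive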
Insulin prom inh cell count: recorded beside Insulin prom inh, whose call it bears; normalized cell count, %; measured here: cell count, toxicity; reference of the scale not given here;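 cells exposed to compound for 48 h; stained nuclei by imaging scaled within each plate; lower means fewer cells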
HSV augment primary fold: recorded beside HSV augment, whose call it bears; fold increase; compound at 10 µM; measured here: primary screen fold increase 10 uM; tested in PC3 cells;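 GFP signal in the first replicate; 1 = infected wells without compound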
Numbers without * were called inactive; i = inactive; / = not tested or not shown; & = joins results of further samples.

cpd | structure | GALR2 ag | PKD1 kinase inh | RGS16-Gao HTS | HSV augment
1 | CCOc1cc(N2CCOCC2)c(OCC)cc1NC(=O)Cn1[nH]c(=O)c2ccccc2c1=O | 1.4 | -1 | 95&108 | i
2 | COc1ccc(/C=C2\SC(=S)N(CCCC(=O)Nc3ccccn3)C2=O)cc1OC | 0.7 | -2 | 52 | i
3 | Cc1cccc(Oc2ccccc2NC(=O)c2cnccn2)c1 | -3.2 | -3 | 95 | i
4 | O=C(Cc1cccs1)N(Cc1ccco1)C1(C(=O)NC2CCCC2)CCCCC1 | -2.4 | -7 | 96 | i
5 | COc1ccc(C(C)(C)C)cc1NC(=O)C1C2C=CC(C2)C1C(=O)O (configuration not stated) | -1.5 | 9 | 102 | i
6 | N#C/C(=N/Nc1ccccc1[N+](=O)[O-])C(N)=S | / | / | 98 | i
7 | COc1ccc(-c2nc3cnccn3c2NC(C)(C)CC(C)(C)C)cc1O | / | -5 | 96 | i
8 | COc1cc(C(=O)Nc2ccc(Oc3ncnc4sc(-c5ccccc5)cc34)cc2)cc(OC)c1OC | -0.6 | -4 | 46 | i

cpd | Insulin prom inh | Insulin prom inh cell count | HSV augment primary fold
1 | / | / | 0.92
2 | -18 | 72 | 0.94
3 | -43 | 125 | 0.96
4 | -32 | 88 | 0.9
5 | / | / | 0.98
6 | / | / | 1.1
7 | / | / | 0.88
8 | 29 | 92 | 0.94

(list continues)
cpd | structure | GALR2 ag | PKD1 kinase inh | RGS16-Gao HTS | HSV augment
9 | CC(C)(C)OC(=O)NCCC(=O)N/N=C/c1cccc2nccnc12 | / | / | 109 | i
10 | O=C(CCS(=O)(=O)c1ccccc1)Nc1nc2c(s1)CCCC2 | -2.4 | -9 | 104 | i
11 | O=S(=O)(NCC1CCCO1)c1ccc2oc3ccc(S(=O)(=O)NCC4CCCO4)cc3c2c1 (configuration not stated) | 0.1 | -2 | 101 | i
12 | Cc1nonc1OC(C)CNc1ccc([N+](=O)[O-])cc1 (configuration not stated) | -2.2 | 0 | 94 | i
13 | CCCc1cc2c(cc1NC(=O)c1ccc(Br)cc1)OCO2 | -2.5 | 6 | 108 | i
14 | CC(C)(CCl)C(=O)Nc1ccc(OC(F)(F)F)cc1 | / | 4 | 96 | i
15 | COc1ccc(N2CCN(C(=O)c3ccc(Cl)c(S(=O)(=O)N4CCCC4)c3)CC2)cc1 | / | 2 | 97 | i
16 | COc1ccc(Cl)cc1Nc1nc(-c2sc(NC(=O)CC(C)C)nc2C)cs1 | -0.6 | 11 | 93 | i

cpd | Insulin prom inh | Insulin prom inh cell count | HSV augment primary fold
9 | / | / | 0.96
10 | / | / | 0.67
11 | -338 | 64 | 0.9
12 | / | / | 0.98
13 | / | / | 1
14 | 69 | 56 | 1.1
15 | 0 | 124 | 1.1
16 | -22 | 87 | 1

Next part:
cpd | structure | GALR2 ag | PKD1 kinase inh | RGS16-Gao HTS | HSV augment
17 | O=C(O)CCS(=O)(=O)c1ccc(-c2ccccc2)cc1 | -0.3 | 6 | 128 | i
18 | CC(C)(C)c1ccc(C(=O)Nc2ccccc2Cl)cc1 | / | -7 | 108 | i
19 | COC(=O)c1ccc(C)c(NC(=O)c2c(-c3ccccc3)noc2C)c1 | 0.3 | -6 | 100 | i
20 | c1coc(CNc2nc3sc4c(c3c3ncnn23)CCCC4)c1 | -0.5 | -9 | 98 | i
21 | COc1ccc(NC(=O)c2cc(C3CC3)on2)c(OC)c1 | -0.2 | 2 | 99 | i
22 | COc1cc2c(cc1NC(=O)COc1ccc3ccccc3c1)oc1ccccc12 | -0.4 | -10 | 103 | i
23 | O=C(/C=C/c1ccc(F)cc1)NCCC1=CCCCC1 | -0.7 | -5 | 91 | i
24 | CN(CCO)S(=O)(=O)c1ccc2c(c1)C(=NNC(N)=O)c1cc(S(=O)(=O)N(C)CCO)ccc1-2 | / | / | 99 | i

cpd | Insulin prom inh | Insulin prom inh cell count | HSV augment primary fold
17 | 6 | 65 | 0.98
18 | 18 | 184 | 0.9
19 | / | / | 1.2
20 | 0 | 113 | 1
21 | 14 | 85 | 0.91
22 | 7 | 128 | 0.94
23 | -8 | 131 | 1
24 | / | / | 0.81

(further entries)
cpd | structure | GALR2 ag | PKD1 kinase inh | RGS16-Gao HTS | HSV augment
25 | S=C(Nc1ccccc1)N1CCCCCC1 | -1.6 | -20 | 104 | i
26 | O=C(Nc1ccccc1)C1CCCN(C(=O)c2ccc(Cl)cc2)C1 (configuration not stated) | / | -1 | 99 | i
27 | CC1CCN(C(=O)Cn2c(=O)n(-c3ccc(F)cc3)c(=O)c3sccc32)CC1 | / | 3 | 103 | i
28 | Cc1cc(C)n(CC(=O)N/N=C/c2cc(Br)cc([N+](=O)[O-])c2O)n1 | / | -3 | 105 | i
29 | O=C(CCSc1ccccc1)Nc1ccc(OCc2ccccc2)cc1 | -2.0 | 9 | 100 | i
30 | O=c1cc(CSc2nc(NCc3ccccc3)c3ccccc3n2)nc2ccc(Cl)cn12 | -1.3 | -7 | 114 | i
31 | CCN(CC(=O)NCc1ccc(F)cc1)CC(=O)Nc1ccc(S(=O)(=O)N2CCCC2)cc1 | / | -6 | 102 | i
32 | O=c1c(Cc2ccc(Cl)cc2Cl)c(O)ccn1Cc1ccncc1 | / | -4 | 101 | i

cpd | Insulin prom inh | Insulin prom inh cell count | HSV augment primary fold
25 | -43 | 117 | 0.89
26 | / | / | 0.95
27 | 47 | 133 | 0.86
28 | 10 | 38 | 0.95
29 | -60 | 124 | 0.94
30 | 21 | 42 | 0.93
31 | / | / | 1
32 | -40 | 88 | 1

Next section.
cpd | structure | GALR2 ag | PKD1 kinase inh | RGS16-Gao HTS | HSV augment
33 | CC1(C(=O)Nc2cccc(S(=O)(=O)N3CCOCC3)c2)Cc2ccccc2C(=O)O1 (configuration not stated) | / | -1 | 97 | i
34 | CC(=O)N1CSCC1C(=O)O (configuration not stated) | -2.0 | 1 | 104 | i
35 | Cc1ccc2c(c1)NCC(C(=O)NC1CCCCC1)O2 (configuration not stated) | -1.5 | 2 | 85 | i
36 | CCCCCCCN=CC1=C(O)CC(c2ccccc2)CC1=O (configuration not stated) | 0.4 | 0 | 86 | i
37 | CC(=O)c1c(Nc2ccccc2)sc(C(=O)c2ccccc2)c1C | -1.0 | 0 | 140 | i
38 | O=C(Cc1cccs1)N1CCN(C(=O)C2CCCO2)CC1 (configuration not stated) | -1.5 | -9 | 106 | i
39 | S=c1[nH]nc(CCc2ccccc2)n1-c1ccc(Cl)cc1 | / | -2 | 77 | i

cpd | Insulin prom inh | Insulin prom inh cell count | HSV augment primary fold
33 | 21 | 79 | 0.93
34 | 25 | 183 | 0.93
35 | / | / | 1.2
36 | 58 | 67 | 0.74
37 | 40 | 86 | 0.92
38 | 58 | 101 | 0.9
39 | / | / | 1

Reformatted as a markdown table: part of the list above
| cpd | SMILES | GALR2 ag | PKD1 kinase inh | RGS16-Gao HTS | HSV augment | Insulin prom inh | Insulin prom inh cell count | HSV augment primary fold |
| --- | --- | --- | --- | --- | --- | --- | --- | --- |
| 26 | O=C(Nc1ccccc1)C1CCCN(C(=O)c2ccc(Cl)cc2)C1 (configuration not stated) | / | -1 | 99 | i | / | / | 0.95 |
| 27 | CC1CCN(C(=O)Cn2c(=O)n(-c3ccc(F)cc3)c(=O)c3sccc32)CC1 | / | 3 | 103 | i | 47 | 133 | 0.86 |
| 28 | Cc1cc(C)n(CC(=O)N/N=C/c2cc(Br)cc([N+](=O)[O-])c2O)n1 | / | -3 | 105 | i | 10 | 38 | 0.95 |
| 29 | O=C(CCSc1ccccc1)Nc1ccc(OCc2ccccc2)cc1 | -2.0 | 9 | 100 | i | -60 | 124 | 0.94 |
| 30 | O=c1cc(CSc2nc(NCc3ccccc3)c3ccccc3n2)nc2ccc(Cl)cn12 | -1.3 | -7 | 114 | i | 21 | 42 | 0.93 |
| 31 | CCN(CC(=O)NCc1ccc(F)cc1)CC(=O)Nc1ccc(S(=O)(=O)N2CCCC2)cc1 | / | -6 | 102 | i | / | / | 1 |
| 32 | O=c1c(Cc2ccc(Cl)cc2Cl)c(O)ccn1Cc1ccncc1 | / | -4 | 101 | i | -40 | 88 | 1 |
| 33 | CC1(C(=O)Nc2cccc(S(=O)(=O)N3CCOCC3)c2)Cc2ccccc2C(=O)O1 (configuration not stated) | / | -1 | 97 | i | 21 | 79 | 0.93 |
| 34 | CC(=O)N1CSCC1C(=O)O (configuration not stated) | -2.0 | 1 | 104 | i | 25 | 183 | 0.93 |
| 35 | Cc1ccc2c(c1)NCC(C(=O)NC1CCCCC1)O2 (configuration not stated) | -1.5 | 2 | 85 | i | / | / | 1.2 |
| 36 | CCCCCCCN=CC1=C(O)CC(c2ccccc2)CC1=O (configuration not stated) | 0.4 | 0 | 86 | i | 58 | 67 | 0.74 |
| 37 | CC(=O)c1c(Nc2ccccc2)sc(C(=O)c2ccccc2)c1C | -1.0 | 0 | 140 | i | 40 | 86 | 0.92 |
| 38 | O=C(Cc1cccs1)N1CCN(C(=O)C2CCCO2)CC1 (configuration not stated) | -1.5 | -9 | 106 | i | 58 | 101 | 0.9 |
| 39 | S=c1[nH]nc(CCc2ccccc2)n1-c1ccc(Cl)cc1 | / | -2 | 77 | i | / | / | 1 |
